Sa growth inh: inhibitors of Staphylococcus aureus growth at 42 °C; 170,000 tested, 0.53% active; S. aureus RN4220 growth, OD600, 20 h; stronger effect = lower value; relative growth, % (no concentration beside the values);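 active = growth at 42 °C up to 50% and 20 or more points under that at 30 °C, or under 10% at both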;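 also: 300 nL library stock went into each well; scaled to the means of positive and negative controls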
HCMV NEC inh: cytomegalovirus nuclear egress complex inhibition; HTRF UL50-UL53 interaction, normalized percent inhibition; inhibition, % (test concentration not listed); 190,000 tested, 0.15% active;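 active = both replicates at 50% or more, plus weaker picks with an unusually low signal ratio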;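 also: stock transfer was 100 nL into about 20 µL; 0% = negative control wells and 100% = wells with untagged competitor protein; inactives centre near -12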
GIV-Gai inh: GIV-Galpha-i interaction inhibition; P08753; Galpha-i3/FITC-GIV peptide fluorescence polarization, 90 min; stronger effect = lower value; scaled: aluminum fluoride 0%, vehicle 100%; percent of control (FP), % (concentration not given with the values); 210,000 tested, 0.42% active; AID 1224905;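 active = replicate mean at 85% of control or lower, very high polarization wells dropped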;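 also: wells of about 15 µL received 100 nL stock; the first replicate is given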
Target sequence (P08753 whole entry, looked up): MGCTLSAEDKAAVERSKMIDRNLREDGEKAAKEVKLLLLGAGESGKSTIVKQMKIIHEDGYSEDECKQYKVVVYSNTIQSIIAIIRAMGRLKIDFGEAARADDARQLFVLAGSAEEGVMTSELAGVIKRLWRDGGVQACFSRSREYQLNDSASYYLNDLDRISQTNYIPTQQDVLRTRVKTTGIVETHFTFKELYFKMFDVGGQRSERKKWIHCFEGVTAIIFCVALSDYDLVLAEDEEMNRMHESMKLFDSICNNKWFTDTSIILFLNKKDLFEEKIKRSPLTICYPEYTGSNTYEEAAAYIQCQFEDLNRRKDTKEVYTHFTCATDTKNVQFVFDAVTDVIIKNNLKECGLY
Sa growth inh second temp: further read-out of Sa growth inh, marked with its call; relative growth, %; measured here: growth at 30 °C;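 optical density after 20 h as mean of two plates; 100% = untreated growth and lower means inhibition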
An asterisk follows results filed as active; x = no result given; & = joins results of further samples.

(1) CCOc1ccccc1NC(=O)c1sc2nc(-c3ccc(OC)cc3)ccc2c1N
(2) CCC(Oc1ccccc1)C(=O)N1CCN(Cc2cc(=O)n3nc(-c4cccc(C)c4)sc3n2)CC1 (stereo unspecified)
(3) O=C(O)CCC(=O)N1N=C(c2c(-c3ccccc3)c3cc(Cl)ccc3[nH]c2=O)CC1c1ccccc1F (stereo unspecified)
(4) COc1ccccc1CN1CCC(CNC(=O)c2cnn(-c3ccc(C)c(C)c3)c2C2CCN(C(=O)OC(C)(C)C)CC2)CC1
(5) CC(=O)Nc1ccc(OCC(=O)N(CC(C)C)C2CCS(=O)(=O)C2)cc1 (stereo unspecified)
(6) COc1ccc(NC(=O)Cn2cc(C(=O)c3cccs3)c3ccccc32)cc1

entry no.	1	2	3	4	5	6
Sa growth inh	102	75	x	94	94	87&101
Sa growth inh second temp	89	78	x	88	101	91&88
HCMV NEC inh	-23	x	-25	x	-8	-21
GIV-Gai inh	103	105	101	110	x	101&102

(7) O=C1N[C@H](Cc2ccccc2)C(=O)N2CCC[C@@H]12
(8) O=C(NCCn1c(CCc2ccccc2)nc2cccnc21)C1CCCC1
(9) Cc1ccccc1N1C(=O)c2ccc(C(=O)OCc3nnc(-c4cccs4)o3)cc2C1=O
(10) COc1ccc(NC2SC(=O)N(Cc3ccccc3)C2=O)cc1 (stereo unspecified)
(11) CCn1c(=O)c2ccccc2n(CC(=O)NCCc2ccc(OC)c(OC)c2)c1=O
(12) Cc1cc(/C=C2\N=COC2=O)ccc1C(F)(F)F

entry no.	7	8	9	10	11	12
Sa growth inh	95	x	88	95	104	95
Sa growth inh second temp	80	x	86	95	104	99
HCMV NEC inh	x	-14	-86	x	10	-4
GIV-Gai inh	103	110	x	99	104	100

(13) O=C(NC1CCCCCC1)C1CCN(C(=O)Cc2ccccc2)CC1
(14) CC(=O)N1N=C(N)SC1(C)c1ccccc1 (stereo unspecified)
(15) Cc1ccccc1NC(=O)c1cc2c(C)nc3ccccc3c2o1
(16) Cc1ccc(S(=O)(=O)Nc2ccc3nc(C)sc3c2)cc1
(17) O=C(c1cccs1)c1coc2ccc(O)c(CN3CCCCC3)c12
(18) CN(C)c1cccc(C(=O)N2CCC(c3c[nH]c4ccccc34)(c3c[nH]c4ccccc34)CC2)c1

entry no.	13	14	15	16	17	18
Sa growth inh	98	106	95	86	81	94
Sa growth inh second temp	86	81	89	88	90	89
HCMV NEC inh	-16	-12	-2	-16	10	-38
GIV-Gai inh	x	105	101	x	108	104

Molecules above that contain an NH in an aromatic ring:
(3) O=C(O)CCC(=O)N1N=C(c2c(-c3ccccc3)c3cc(Cl)ccc3[nH]c2=O)CC1c1ccccc1F (stereo unspecified)
(18) CN(C)c1cccc(C(=O)N2CCC(c3c[nH]c4ccccc34)(c3c[nH]c4ccccc34)CC2)c1

entry no.	3	18
Sa growth inh	x	94
Sa growth inh second temp	x	89
HCMV NEC inh	-25	-38
GIV-Gai inh	101	104

The list continues.
(19) COc1ccc(-n2c(=O)c3ccccc3n(Cc3ccc(F)cc3Cl)c2=O)cc1OC
(20) O=C(COc1ccc(-c2ccccc2)cc1)NC1CCOC1=O (stereo unspecified)
(21) CSc1ccccc1NS(=O)(=O)c1ccccc1C(F)(F)F
(22) CC(C(=O)Nc1ccc(S(=O)(=O)Nc2ncccn2)cc1)N1C(=O)c2ccccc2C1=O (stereo unspecified)
(23) CN(C)S(=O)(=O)N(CC(N)=O)c1ccccc1
(24) CC1C/C(=C/c2ccccn2)C(=O)/C(=C/c2ccccn2)C1 (stereo unspecified)

entry no.	19	20	21	22	23	24
Sa growth inh	96	92	107	84	111	57
Sa growth inh second temp	90	98	88	80	107	34
HCMV NEC inh	-9	-6	-2	-35	-6	-30
GIV-Gai inh	102	x	x	101	105	x

(25) O=C(CSc1nc2ncccc2o1)NCc1ccco1
(26) CC(C)C1CC(CCN2C(=O)CCC2=O)(c2ccccc2)CCO1 (stereo unspecified)
(27) COc1cccc(CN2C(=O)C3(SCC(=O)N3c3ccc(C)c(Cl)c3)c3ccccc32)c1 (stereo unspecified)
(28) O=c1[nH]c(C2=C(O)Cn3c2nc(=O)c2ccccc23)nc2ccccc12
(29) CCc1ccc(C(=O)c2cnc3cc4c(cc3c2N2CCC(C(N)=O)CC2)OCCO4)cc1
(30) CC(=O)Nc1cccc(NC(=O)CSc2nccn2Cc2ccccc2)c1

entry no.	25	26	27	28	29	30
Sa growth inh	103	101	83	106	116	99
Sa growth inh second temp	91	107	72	100	89	87
HCMV NEC inh	-32	11	x	-9	-14	x
GIV-Gai inh	102	101	102	x	105	101

(31) Cc1ccc(NC(=O)c2c(C(=O)Nc3ccccc3)sc3nc(C)cc(=O)n23)cc1
(32) COc1ccc(NC(=O)COCc2cc(-c3ccco3)on2)cc1Cl
(33) O=C1OCCC1Sc1nnc(-c2cccc(S(=O)(=O)N3CCOCC3)c2)n1-c1cccc(Cl)c1 (stereo unspecified)
(34) CCN(Cc1ccc2c(c1)OCCO2)C(=S)NCc1ccco1
(35) CC(C)(C)OC(=O)N1CCC(c2nnc(SCc3ccccc3F)o2)CC1
(36) Cc1cccc(NC(=O)CN2C(=O)COc3ccc(S(=O)(=O)N4CCC(C)CC4)cc32)c1C

entry no.	31	32	33	34	35	36
Sa growth inh	102	102	88	91	83	90
Sa growth inh second temp	92	99	95	95	93	85
HCMV NEC inh	-9	x	-11	-7	6	x
GIV-Gai inh	103	111	x	x	103	102

Looked up by structure from the entries so far (four):
(33) O=C1OCCC1Sc1nnc(-c2cccc(S(=O)(=O)N3CCOCC3)c2)n1-c1cccc(Cl)c1 (stereo unspecified)
(36) Cc1cccc(NC(=O)CN2C(=O)COc3ccc(S(=O)(=O)N4CCC(C)CC4)cc32)c1C
(35) CC(C)(C)OC(=O)N1CCC(c2nnc(SCc3ccccc3F)o2)CC1
(31) Cc1ccc(NC(=O)c2c(C(=O)Nc3ccccc3)sc3nc(C)cc(=O)n23)cc1

entry no.	33	36	35	31
Sa growth inh	88	90	83	102
Sa growth inh second temp	95	85	93	92
HCMV NEC inh	-11	x	6	-9
GIV-Gai inh	x	102	103	103

(list continues)
(37) CCCCCCCCCCCCCCCC(=O)O[C@@H]1[C@@H](O)[C@@H](O)C([C@H](NC(=O)[C@@H]2C[C@@H](CCC)CN2C)[C@H](C)Cl)O[C@@H]1SC (stereo partly specified)
(38) O=C(O)c1ccccc1C(=O)N1CCCC1
(39) CCCCn1nnnc1COC(=O)c1ccccc1O
(40) Cc1cc(NC(=O)CC2CCCCC2)n(-c2ncnc3c2cnn3-c2ccc(Cl)cc2)n1
(41) NC(=O)C1CC(O)CN1c1ncnc2cc(-c3ccc(F)cc3)sc12 (stereo unspecified)
(42) O=c1oc(-c2cccs2)nc2ccc(Br)cc12

entry no.	37	38	39	40	41	42
Sa growth inh	102	93	91	x	97	101
Sa growth inh second temp	96	86	90	x	81	93
HCMV NEC inh	-5	-2	-24	11	-28	-2
GIV-Gai inh	x	x	x	105	x	97

(43) CCN1C(=O)/C(=C/C=C2\Oc3ccccc3N2CC)SC1=S
(44) Cc1nc(-n2[nH]c(C)c(CC(=O)N3CCCCC3)c2=O)sc1C
(45) CC(=O)Nc1cccc(NC(=O)Cn2c(-c3cccnc3)ccc(C#N)c2=O)c1
(46) OC1(c2ccccc2F)CCN(CCN2CCCCC2)CC1
(47) Cc1nc2c(cnn2-c2ccccc2Cl)c(=O)n1-c1ccc(C(C)C)cc1
(48) COc1ccc(N2C(S)=C(C#N)C(=O)NC2c2ccccc2)cc1 (stereo unspecified)

entry no.	43	44	45	46	47	48
Sa growth inh	104	x	92	95	100	107
Sa growth inh second temp	80	x	73	71	104	76
HCMV NEC inh	-36	-24	-17	5	8	-2
GIV-Gai inh	108	101	139	100	104	106

Four of the entries above in order of their number in Sa growth inh second temp, smallest number first.
cpd | Structure | Sa growth inh second temp
45 | CC(=O)Nc1cccc(NC(=O)Cn2c(-c3cccnc3)ccc(C#N)c2=O)c1 | 73
48 | COc1ccc(N2C(S)=C(C#N)C(=O)NC2c2ccccc2)cc1 (stereo unspecified) | 76
43 | CCN1C(=O)/C(=C/C=C2\Oc3ccccc3N2CC)SC1=S | 80
47 | Cc1nc2c(cnn2-c2ccccc2Cl)c(=O)n1-c1ccc(C(C)C)cc1 | 104

Entries of single compounds as entered above:
Cc1nc(-n2[nH]c(C)c(CC(=O)N3CCCCC3)c2=O)sc1C reads Sa growth inh = x; Sa growth inh second temp = x; HCMV NEC inh = -24; GIV-Gai inh = 101
Cc1nc2c(cnn2-c2ccccc2Cl)c(=O)n1-c1ccc(C(C)C)cc1 reads Sa growth inh = 100; Sa growth inh second temp = 104; HCMV NEC inh = 8; GIV-Gai inh = 104

Carrying on:
(49) COc1ccc(Cn2c(=O)c3cccnc3n(Cc3cccc(F)c3)c2=O)cc1
(50) Cc1cc(Br)ccc1NC(C)C(=O)N1CC(C)OC(C)C1 (stereo unspecified)
(51) Brc1ccc(COc2ccc(-n3cnnn3)cc2)cc1
(52) N=S(=O)(O)Cc1noc2ccccc12
(53) NC(=O)c1c(NC(=O)c2csc3c2CCCC3)sc2c1CCCC2
(54) Cc1cc(C)c(NC(=O)CSc2ncc(S(=O)(=O)c3ccc(C(C)(C)C)cc3)c(=O)[nH]2)c(C)c1

entry no.	49	50	51	52	53	54
Sa growth inh	117	104	104	x	x	91
Sa growth inh second temp	88	85	88	x	x	90
HCMV NEC inh	-23	-27	-24	5	-5	10
GIV-Gai inh	109	x	x	101	98	109

(55) CCCCCn1c(=O)[nH]c2cc(C(=O)N3CCN(C4CCCCC4)CC3)ccc2c1=O
(56) CCC(=O)Nc1cccc(-c2cnc3ccccc3n2)c1
(57) CCc1nc(-c2cc(S(=O)(=O)N3CCN(c4ccccc4)CC3)ccc2OC)no1
(58) COc1cccc(CNC(=O)CN2C(=O)COc3ccc(S(=O)(=O)N4CCCCC4)cc32)c1
(59) CCOC(=O)C1=C(C)N(C2CCCC2)C(=O)NC1c1ccc(Cl)cc1 (stereo unspecified)
(60) C=CCn1c(SCC(=O)O)nnc1-c1ccco1

entry no.	55	56	57	58	59	60
Sa growth inh	88	113	105	94	101	101
Sa growth inh second temp	89	78	87	74	79	114
HCMV NEC inh	-20	-77	-6	x	-14	10
GIV-Gai inh	101	103	102	110	x	97

(61) CCOC(=O)CSc1nnc(Cc2ccc(Cl)cc2)c(=O)[nH]1
(62) CC1(C)CC(C)(O)P(=O)(c2ccccc2)O1 (stereo unspecified)
(63) CCCCCN1C(C(=O)c2ccccc2)=C(NC(=O)c2ccccc2Cl)c2ccccc2S1(=O)=O
(64) OC(COc1ccc(F)cc1)CN1CCN(c2nc3ccc(Cl)cc3s2)CC1 (stereo unspecified)
(65) CC1Cc2ccccc2N1C(=O)c1cnsn1 (stereo unspecified)
(66) COc1ccc(N2C(=O)C3SC(N)=C(C#N)C4(CCCCC4)C3C2=O)cc1 (stereo unspecified)

entry no.	61	62	63	64	65	66
Sa growth inh	100	81	108	93	102	105
Sa growth inh second temp	97	76	93	91	81	98
HCMV NEC inh	-9	x	-28	-23	-8	-5
GIV-Gai inh	104	106	103	111	107	x

(67) COc1ccc(OCC2NCCc3cc(OC)c(OC)cc32)cc1 (stereo unspecified)
(68) Cc1ccccc1NC(=O)Nc1ccc(SCc2cc(=O)n3c(ncn3C(C)C)n2)cc1
(69) CCNC(=O)CC1C(=O)N(c2cccc(OC)c2)C(=O)N1Cc1ccc(OC)c(OC)c1 (stereo unspecified)
(70) COc1cc(/C=C2\SC(=O)N(C)C2=O)ccc1OCC(=O)O
(71) CCOC(=O)N1CCC(NC(=O)c2ccc3c(c2)N(Cc2ccccc2F)C(=O)c2ccccc2S3=O)CC1 (stereo unspecified)
(72) COC(=O)c1sc2cccc(F)c2c1S(=O)(=O)N1CCN(c2cccc(OC)c2)CC1

entry no.	67	68	69	70	71	72
Sa growth inh	104	x	106	89	110	107
Sa growth inh second temp	88	x	89	82	91	90
HCMV NEC inh	-5	-20	-22	-101	2	x
GIV-Gai inh	107	102	95	98	99	102

(73) COc1ccc(-c2[nH]ncc2CN2CCC(O)(c3ccc(Cl)cc3)CC2)cc1
(74) COc1ccc(-c2nc(SCC(=O)Nc3ccc4c(c3)OCCO4)c(-c3ccc(F)cc3)[nH]2)cc1
(75) COc1ccccc1CNc1ccc2nnc(CCNC(=O)c3ccccc3F)n2n1
(76) Cc1ccccc1-n1c(SCC(=O)O)nc2sc3c(c2c1=O)CC(C)(C)OC3
(77) O=C(Cn1ncc2ccccc21)NCc1cccc(Cl)c1
(78) COc1cccc(-c2nn(Cc3nc(-c4ccccc4)oc3C)c(=O)c3noc(C)c23)c1

entry no.	73	74	75	76	77	78
Sa growth inh	96	111	x	92	109	x
Sa growth inh second temp	82	88	x	100	93	x
HCMV NEC inh	-20	-20	-6	x	7	-31
GIV-Gai inh	110	103	106	101	104	129

(79) COc1ccc(S(=O)(=O)NCc2csc(-c3ccccc3)n2)cc1OC
(80) CC1(C)CC2CC(C)(CN2C(=O)Nc2ccccc2)C1 (stereo unspecified)
(81) O=C(NCCCN1CCOCC1)c1cc2ccccc2[nH]1
(82) O=C(O)C1CCCN1/C=C/C(=O)C(F)(F)F (stereo unspecified)
(83) O=C(CN1C(=O)C(c2ccccc2)=NC12CCCC2)Nc1ccccc1

entry no.	79	80	81	82	83
Sa growth inh	95	93	x	62	114
Sa growth inh second temp	76	81	x	90	96
HCMV NEC inh	x	-18	-15	-18	x
GIV-Gai inh	102	101	102	x	102
